Screens as filed in PubChem BioAssay.
NPYLR7 ag – mosquito NPYLR7 agonism; 0.15% of 270,000 active; HEK293T NPYLR7/Galpha15, GCaMP6s calcium fluorescence; activation, % at 10 µM; in the data active = activation above about 40%;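 note: 0% = vehicle and 100% = reference agonist at the receptor; some compounds past the cut are filed as inactive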
NPYLR7 ag max-min – second read-out of NPYLR7 ag, no call of its own (marks repeat the call); activation, %; measured here: Max-Min RFU normalised activation; some inactives read as strong as hits;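 span of the calcium signal over five minutes; 0% = vehicle and 100% = native peptide agonist; compound fluorescence can raise it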
* hit, by the source's call. Only part of the results is shown, so the mix of outcomes need not match the whole.

Preview, three compounds:
SMILES	NPYLR7 ag	NPYLR7 ag max-min
CNC(=O)NC(=O)CN1CCCC1c1cccc(OC)c1 (stereo not given)	8	4
CC(NC(=O)C12CC3CC(CC(C3)C1)C2)C(=O)N(C)C (stereo not given)	-1	4
COc1cc(C(=O)Nc2cc(Cl)ccc2N2CCSCC2)ccc1C	1	9

The whole of this part (from the top)
SMILES	NPYLR7 ag	NPYLR7 ag max-min
CNC(=O)NC(=O)CN1CCCC1c1cccc(OC)c1 (stereo not given)	8	4
CC(NC(=O)C12CC3CC(CC(C3)C1)C2)C(=O)N(C)C (stereo not given)	-1	4
COc1cc(C(=O)Nc2cc(Cl)ccc2N2CCSCC2)ccc1C	1	9
COc1ccc(Nc2nc(N3CCOCC3)nc(N)c2[N+](=O)[O-])cc1	-1	-1
O=C(Nc1nc2ncccn2n1)C1CC(c2cc(F)ccc2F)=NO1 (stereo not given)	0	-5
Cc1nc2nc(N)nn2c(C)c1CCC(=O)NC(C)c1ccc(F)cc1F (stereo not given)	1	2
CCCCCc1ccc(C(=O)N2CCC3(CC2)SCCN3C(=O)CC(C)C)cc1	-4	1
C=C(C)CN1N=C(c2ccccc2)Cn2c1nc1c2c(=O)n(C)c(=O)n1C	-8	-12
COCCN(CC(=O)N(Cc1ccc(F)cc1)Cc1sccc1C)C(=O)Nc1ccc(OC)cc1OC	12	22
CC(C)c1ccc(C2N=C(N)Nc3nc4ccccc4n32)cc1 (stereo not given)	-5	10
CN(Cc1ccsc1)C(=O)CS(=O)(=O)Cc1cc(Cl)c2c(c1)OCCCO2	-5	-6
CC(NS(=O)(=O)CC1CCCCC1)c1cc2ccccc2o1 (stereo not given)	-23	-22
COc1ccccc1N1C(=O)CC(N2CCN(c3ncccn3)CC2)C1=O (stereo not given)	-3	-5
CC1CC(C)(C)CC(CO)(NCC(=O)NC(C)C)C1 (stereo not given)	9	6
COc1cccc(-c2cc(N)c(=O)n(Cc3ccc(C(F)(F)F)cc3)n2)c1	-2	-3
Nc1cc(-c2ccccc2)nn1S(=O)(=O)c1cc(Cl)sc1Cl	4	5
O=C(CN1CCCC(C(F)(F)F)C1)Nc1ccc(F)cc1F (stereo not given)	6	2
CCc1cccc(NC(=O)N(CCCOC)CC(=O)N(Cc2ccc(F)cc2)Cc2sccc2C)c1	-12	-11
c1ccc(-c2nc3c4ccccc4ccn3c2CN2CCCCC2)cc1	3	2
COc1ccc(NC(=O)N(CC(C)C)C2CC2)cc1	-3	-5
COc1cccc(-c2cc(C(=O)NCCc3ccccc3)n(-c3cccc([N+](=O)[O-])c3)n2)c1	-2	8
CN1CCC(Cc2noc(COCC(F)(F)C(F)F)n2)CC1	13	-5
Cc1cc(N2CCCC(N)C2=O)n(C)n1 (stereo not given)	5	3
N#Cc1ccc(C2Nc3ccccc3C(=O)N2Cc2ccco2)cc1 (stereo not given)	-15	-16
Cc1nc(-c2ccccc2)[nH]c(=O)c1CCC(=O)NC1(C)CCS(=O)(=O)C1 (stereo not given)	0	-1
Cc1ccc(OC(C)C(=O)N2CCCc3cc(S(=O)(=O)N4CCCC4)ccc32)cc1 (stereo not given)	6	4
CC(=O)OC(C(=O)N(Cc1ccco1)Cc1cc2ccccc2o1)c1ccccc1 (stereo not given)	-5	-16
COc1ccc(C(=O)C2CCCN(Cc3ccnc4ccccc34)C2)c(C)c1 (stereo not given)	14	13
O=C(C1CCOC1)N1CCC(c2nc3cc(Cl)ccc3s2)CC1 (stereo not given)	26	26
Cc1ccn2c(=O)c(C(=O)NC3CCCCC3)c(O)nc2c1	-2	38
COCCNC(=O)c1cc(-c2ccc(OC)cc2OC)nn1-c1ccc([N+](=O)[O-])cc1	5	12
O=S(=O)(c1ccc(=S)[nH]c1)N1CCCCC1	0	-3
Cc1cc(C)c(Cn2ccnc2CN(Cc2cccnc2)C(=O)C2CCCC2)c(C)c1	3	14
Oc1cccnc1-c1ccccc1	1	0
COc1ccccc1OC1CCN(C(=O)CCC2(Cc3ccccc3)CCC(=O)N2)CC1 (stereo not given)	14	16
Fc1ccccc1-c1n[nH]c2c1CN(Cc1ccc3c(c1)OCCO3)CC2	4	-4
O=C(Nc1cnn(Cc2ccccn2)c1)c1ccc[nH]c1=S	-6	-8
CCC(=O)NCCS(=O)(=O)N1CCN(c2ccccc2)CC1	-4	-5
COCCCn1c(C)c(C)n2c3c(=O)n(Cc4ccc(C)cc4)c(=O)n(C)c3nc12	-1	17
O=C1c2ccccc2C(=O)N1CNc1ccc(Br)cc1	4	1
COCCN(CCN(C)C)C(=O)c1ccc(Cl)c(Cl)c1	1	1
O=[N+]([O-])c1cccc(-c2ccc3nnc(SCc4ccccn4)n3n2)c1	-21	-19
O=C(Cn1cccc(C(F)(F)F)c1=O)Nc1n[nH]c(-c2ccccc2)n1	16	15
COc1cn2c(cc1=O)C(=O)N(CCNC(=O)COc1ccc(Cl)cc1)CC2	11	6
O=c1[nH]nc(SCC2CCCO2)n1Cc1ccccc1 (stereo not given)	1	1
CC(=O)Nc1ccc(NC(=O)c2cccn2C)cc1Cl	9	5
C#CCn1c(C2CC(=O)N(c3cccc(C)c3C)C2)nc2ccccc21 (stereo not given)	11	18
CSc1nnc2c(n1)OC(c1ccc(O)cc1)Nc1ccc(Br)cc1-2 (stereo not given)	-1	-2
Cc1ccc(-n2nc(C(=O)NCc3ccco3)c(=O)n(Cc3ccccc3Cl)c2=O)cc1C	-7	3
O=C(NNC(=O)c1ccccc1Oc1ccccc1)c1ccc(S(=O)(=O)N2CCCC2)cc1	12	10

Next section; it opens with the 5 that closed the last part.
SMILES	NPYLR7 ag	NPYLR7 ag max-min
CC(=O)Nc1ccc(NC(=O)c2cccn2C)cc1Cl	9	5
C#CCn1c(C2CC(=O)N(c3cccc(C)c3C)C2)nc2ccccc21 (stereo not given)	11	18
CSc1nnc2c(n1)OC(c1ccc(O)cc1)Nc1ccc(Br)cc1-2 (stereo not given)	-1	-2
Cc1ccc(-n2nc(C(=O)NCc3ccco3)c(=O)n(Cc3ccccc3Cl)c2=O)cc1C	-7	3
O=C(NNC(=O)c1ccccc1Oc1ccccc1)c1ccc(S(=O)(=O)N2CCCC2)cc1	12	10
CCOc1ccc(C(=O)NCCN2CCn3cc(OC)c(=O)cc3C2=O)cc1OCC	0	-2
Cc1sc2nc(CCN)nc(N3CCN(S(C)(=O)=O)CC3)c2c1C	15	7
O=C(CCc1nc2ccccc2c(=O)[nH]1)Nc1ccc(N2CCOCC2)cn1	6	7
CN(Cc1ccccc1F)Cc1cc([N+](=O)[O-])cc2c1OCOC2	-9	-12
Cc1cccc(C)c1NC(=O)Nc1ccc(N2CCCC2)c(C(=O)NC(C)C)c1	3	3
CCn1nnc2cc(C(=O)Nc3ccc(C)cc3Br)ccc21	3	1
Cc1[nH]nc(CCC(=O)NC2CC(=O)N(Cc3cccc(F)c3)C2)c1C (stereo not given)	9	8
Cc1cccc(OCCN(C)c2cnn(-c3ccc(F)cc3F)c(=O)c2Cl)c1	-3	-5
Cc1c(NC(=O)c2ccco2)cccc1C(=O)N1CCC2(CCCNC2)C1 (stereo not given)	-2	-5
CCc1nc2c(OCC3CCCCO3)cccn2c1N(C=O)Cc1ccccc1 (stereo not given)	4	1

Five entries from above, with bars between the fields.
canonical_smiles | NPYLR7 ag | NPYLR7 ag max-min
COc1ccc(C(=O)C2CCCN(Cc3ccnc4ccccc34)C2)c(C)c1 (stereo not given) | 14 | 13
O=C(C1CCOC1)N1CCC(c2nc3cc(Cl)ccc3s2)CC1 (stereo not given) | 26 | 26
Cc1ccn2c(=O)c(C(=O)NC3CCCCC3)c(O)nc2c1 | -2 | 38
COCCNC(=O)c1cc(-c2ccc(OC)cc2OC)nn1-c1ccc([N+](=O)[O-])cc1 | 5 | 12
O=S(=O)(c1ccc(=S)[nH]c1)N1CCCCC1 | 0 | -3

More structures
SMILES	NPYLR7 ag	NPYLR7 ag max-min
CNC(=O)NC(=O)CN1CCN(Cc2ccccc2)CC1	20	12
COc1ccc(OCCCCOc2ccccc2[N+](=O)[O-])cc1	20	8
CC1CN(CCCNC(=O)C2CCN(c3ccccc3[N+](=O)[O-])CC2)CC(C)O1 (stereo not given)	0	5
O=C(C=Cc1ccco1)NNC(=O)C1CC1	5	9
CC(=NN=C1NC(=O)CS1)c1cc2ccccc2oc1=O	-9	-20
COc1cc(NC(=O)NCc2nnc(SCc3ccccc3C)n2-c2cc(Cl)ccc2Cl)cc(OC)c1	31	27
COc1cc(C(=O)N(C)C2CCS(=O)CC2)cc(Cl)c1OCCC(C)C (stereo not given)	5	2
O=C(O)c1cccnc1CN1CCN(Cc2ccc3c(c2)OCO3)CC1	14	4
CN(CCO)C1(CNC(=O)C2(c3cccc(Cl)c3)CCOCC2)CCCCC1	2	-4
c1ccc(-c2ccccn2)nc1	-7	-1
CCCn1ccnc1SCc1nc(CC)no1	9	6
Cc1c(C(=O)NCC2CC2)sc(=O)n1Cc1ccc(OC(F)(F)F)cc1	-5	-6
Cc1nn(CC(=O)N(C(C)C)C(C)C)c(C)c1S(=O)(=O)NC(C)(C)C	-3	3
O=C(CC1C=CS(=O)(=O)C1)N1C[C@@H]2C3CCC(CC3)[C@@H]2C1 (stereo not given in full)	6	3
CCOc1ccc(-n2c(C(CC)N(CCCOC)C(=O)CCC3CCCC3)nc3ccccc3c2=O)cc1 (stereo not given)	7	5
COc1ccnc(NC(C)c2ccc3c(c2)CCCC3)n1 (stereo not given)	18	13
O=C(NCCc1ccccc1)C(C1CCCC1)N1CCN(C(=O)c2cccs2)CC1 (stereo not given)	-2	3
C=CCN(C)S(=O)(=O)c1ccc(NC(N)=O)cc1	-6	473
C=C(C)CN(CC)Cc1cn[nH]c1-c1ccc(C)c(C)c1	-3	-10
C=CCNC(=O)C(NC(=O)c1cccc(C)c1)C1CCN(C(=O)C2CCCC2)CC1 (stereo not given)	17	18

Looked up above.
NPYLR7 ag with `O=C(NCCc1ccccc1)C(C1CCCC1)N1CCN(C(=O)c2cccs2)CC1` (stereo not given) → -2
NPYLR7 ag max-min with `CCOc1ccc(-n2c(C(CC)N(CCCOC)C(=O)CCC3CCCC3)nc3ccccc3c2=O)cc1` (stereo not given) → 5
NPYLR7 ag with `C=CCNC(=O)C(NC(=O)c1cccc(C)c1)C1CCN(C(=O)C2CCCC2)CC1` (stereo not given) → 17

Going on with the list.
SMILES	NPYLR7 ag	NPYLR7 ag max-min
Cc1nn(CC(=O)N2CCN(c3ccccc3)CC2)c(=O)c2c1cnn2-c1ccccc1	3	-1
O=C(C1CCC1)N1CCC(c2nc(-c3ccncc3)no2)CC1	5	4
Cc1cccc2oc(=O)n(C3CCN(C(=O)c4cnc5ccccc5n4)CC3)c12	2	-1
O=C1NC(CC(=O)N2CCOc3ccc(CN4CCc5ccccc5C4)cc3C2)c2ccccc21 (stereo not given)	18	7
Cc1ccc(-n2ncc3c(N4CCCCC4)nc(NCCCO)nc32)cc1	3	1
CC(=O)Nc1ccc(CC(=O)N(C)C(C)c2cc(C)ccc2C)cc1 (stereo not given)	1	-1
CCOCCCNC(=O)c1cc(NC(=O)CSc2ccccc2)ccc1N1CCN(c2ccccc2OC)CC1	14	14
CCSc1nnc(NC(=O)/C=C/c2ccc(Cl)cc2Cl)s1	0	-4
O=C(Cn1nnnc1CN1CCCC1)NCc1cnn(Cc2ccccc2)c1	-5	-6
CSc1ccccc1OCc1cc(C(=O)N2CCCCC2CCc2ccccn2)no1 (stereo not given)	-1	-3
COc1ccc2ccccc2c1CN1CCN(C2CCCC2)C(CCO)C1 (stereo not given)	4	3
Clc1ncc2[nH]cnc2n1	0	-4
CCn1cnnc1-c1cccc(NC(=O)c2cccc(C)c2)c1	8	6
N#CCCCOc1cccnc1NC(=O)C1CC2CCC1C2 (stereo not given)	-9	-10
Cc1ccc(S(=O)(=O)NC(=O)C2(C)CCN2C(=O)CC(c2ccccc2)c2ccccc2)cc1 (stereo not given)	-4	-10
CCOCCOC(C)C(=O)NC(C#N)CC(C)C (stereo not given)	4	4
CCNC(=O)c1cncc(-c2c(C)cccc2C)c1	7	6
O=S1(=O)NC(=NCCCCCCO)c2ccccc21	1	3
O=C(CCN(CCc1ccccc1)c1nc(-c2ccco2)nc2ccccc12)NC1CC1	10	10
Cc1cc(N(C)C)nc(Nc2ccc(NC(=O)C3CCCO3)cc2)n1 (stereo not given)	10	2
O=C(Nc1nc(-c2cccs2)c(-c2cccs2)s1)C1COCCO1 (stereo not given)	5	3
O=C(c1ccccn1)N1CCOc2ccc(Cl)cc21	-1	26
CCOCCCN(Cc1nc(C(=O)OCC)cs1)C(=O)c1ccc(Cl)cc1	21	26
CCC(COC)NC(=O)c1c(C)noc1-c1ccccc1Cl (stereo not given)	29	18
Cc1cccnc1C(NC(=O)C1CCN(CCCc2ccccc2)CC1)c1ccc(F)cc1 (stereo not given)	6	9
Cc1ccccc1CO[C@]1(C(=O)NC2CC2)CC(OCc2ccccc2)[C@H](O)[C@H](O)C1 (stereo not given in full)	3	19
CCOc1ccccc1-c1cc(C(=O)N=c2sccn2C)[nH]n1	8	7
CS(=O)(=O)c1ccc(F)c(C(=O)NC2CCCCCCC2)c1F	11	-5
COCCCn1c(CN2CCCCO2)cnc1S(=O)(=O)C1CCCC1	13	5
CCOC(=O)c1cn[nH]c1S(=O)(=O)Nc1ccc(C(N)=O)cc1	-1	-6
O=C(CSc1nnc(-c2ccco2)o1)Nc1ccnn1C1CCCC1	9	12
Cc1c(CNC2CCC3CCCCC3C2)cc(C#N)n1C (stereo not given)	10	7
COCCN(Cc1nccn1Cc1ccc(C(F)(F)F)cc1)C(=O)C1CCCC1	12	10
